# NPYLR7 ag = activates Aedes aegypti NPYLR7 receptor. activation, % at 10 µM. AID 1259423. 0.15% of 270,000 active. HEK293T NPYLR7/Galpha15, GCaMP6s calcium fluorescence; in the data active = activation above about 40%;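 also: 0% = vehicle and 100% = reference agonist at the receptor; some compounds past the cut are filed as inactive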
# NPYLR7 ag max-min = recorded beside NPYLR7 ag, whose call it bears; activation, %; measured here: Max-Min RFU normalised activation; some inactives read as strong as hits;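 span of the calcium signal over five minutes; 0% = vehicle and 100% = native peptide agonist; compound fluorescence can raise it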
# Active calls of the source: *; & = joins results of further samples.
Compound | NPYLR7 ag | NPYLR7 ag max-min
CCOC(=O)CNC(=O)Cn1c(=O)n(-c2ccc(C)cc2)c(=O)c2oc3ccccc3c21 | -6 | -11
CCCCN(Cc1cccn1Cc1ccccc1C)C(=O)Nc1ccc(C#N)cc1 | 16 | 20
CN(CC(=O)NC1CCCCNC1=O)CC12CC3CC(CC(C3)C1)C2 (stereo not given) | 4 | 3
Cc1cn2c3c(=O)n(CCN4CCOCC4)c(=O)n(C)c3nc2n1-c1ccc(Cl)cc1 | 0 | -3
Cc1ccc(Cl)cc1-n1c(SCc2ccc(F)cc2)nnc1C(Cc1ccccc1)NC(=O)COCc1ccccc1 (stereo not given) | 19 | 26
CC(C)CCCC1CN(S(=O)(=O)N2CCCCC2)CCO1 (stereo not given) | 2 | -13
NC(=O)C1c2ccccc2CCN1S(=O)(=O)/C=C/c1ccccc1 (stereo not given) | -1 | -1
CCOc1ccc(C2CC(c3ccc(C)c(C)c3)=NN2C(=O)CN2CCCC2)cc1 (stereo not given) | 0 | 1
CCCC(=O)N1CCN(c2oc(-c3ccc(COc4ccccc4C)o3)nc2C#N)CC1 | 0 | 21
CCN(CC)C(=O)C1CCCN(C(=O)Cn2nnnc2CN2CCCCCC2)C1 (stereo not given) | 6 | -1
CCCCS(=O)(=O)N1CC(=O)N(Cc2ccc(C)cc2)CC(O)C1 (stereo not given) | 27 | 22
Cc1nn2c(C(F)(F)F)cc(-c3ccc(Cl)cc3)nc2c1C(=O)N1CCCCCC1 | -6 | -6
Cc1ccc(-c2ccc(CCC(=O)NC3CCCc4ccccc43)n2-c2ccc(CC#N)cc2)c(C)c1 (stereo not given) | 30 | 15
Cn1c(SCC(=O)Nc2cccc3ccccc23)nc2c(c1=O)SCC2 | 1 | 1
C[C@@H]1CN(C(=O)C(C)(C)Oc2ccc(CCNC(=O)c3ccc(Cl)cc3)cc2)C[C@H](C)O1 | -3 | -8

# Structures listed so far with an aryl thioether with sulfur outside any ring:
Compound | NPYLR7 ag | NPYLR7 ag max-min
Cc1ccc(Cl)cc1-n1c(SCc2ccc(F)cc2)nnc1C(Cc1ccccc1)NC(=O)COCc1ccccc1 (stereo not given) | 19 | 26
Cn1c(SCC(=O)Nc2cccc3ccccc23)nc2c(c1=O)SCC2 | 1 | 1

# Carrying on.
Compound | NPYLR7 ag | NPYLR7 ag max-min
CCCC(=O)C1=C(c2ccc(OC)cc2)N(C(=O)CCC)n2cnnc2S1 | 7 | 4
CC(Sc1nncn1C)C(=O)NC(c1ccccc1)c1ccccc1 (stereo not given) | -10 | -12
Cc1ccc(S(=O)(=O)N2CCCC(CNC(=O)c3cccs3)C2)cc1 (stereo not given) | 12 | 6
O=S(=O)(NC1CC1)c1ccc(S(=O)(=O)N2CCN(c3ncccn3)CC2)cc1 | 1 | -2
CCN(C(=O)c1cccc(NC(=O)CCc2ccncc2)c1)c1ccccc1 | 2 | -3
CC(Cn1cccn1)NC(=O)C1=Cc2cc(Cl)ccc2OC1 (stereo not given) | -1 | -3
CCn1c(C)c(C(=O)CN(Cc2ccco2)S(=O)(=O)c2cccc3cccnc23)c(C)c1C(=O)OC | 24 | 30
CC(C)CN(CC(C)C)C(=O)CSc1nn2c(=O)c(C(C)(C)C)nnc2s1 | -4 | -4
COCCNC(=O)[C@@]1(OCc2cccc(C(F)(F)F)c2)CC(OCc2ccc(C#N)cc2)[C@H](O)[C@H](O)C1 (stereo not given in full) | 5 | 12
CCN1C(=O)N(CC)C(O)C1O (stereo not given) | 0 | 2
O=C(NCc1ccco1)C(=O)Nc1cc2c3c(c1)CCN3C(=O)CC2 | 10 | 8
CCN(Cc1ccc2c(c1)OCO2)C(=O)CNS(=O)(=O)c1ccc2c(c1)CCCC2 | -1 | 2
COC(=O)c1ccc(COC(CN2CCN(C(=O)c3snnc3C)CC2)c2ccc(Cl)cc2)cc1 (stereo not given) | 5 | 2
OCC1O[C@H]([S-])[C@@H](O)C(O)[C@@H]1O.[Au+] (stereo not given in full) | 5 | -33
CCCCCCCC(=O)N(Cc1cccc(OS(C)(=O)=O)c1)Cc1ccco1 | -4 | 0
CCc1ncc(-c2nccn2Cc2cnn(-c3ccc(F)cc3)c2)cn1 | 1 | -2
Cn1c(=NC(=O)c2ccccc2)sc2cc3c(cc21)OCCO3 | 0 | -1
Cc1noc(-c2cccc(F)c2)c1C(=O)NCCC1CCCN1C (stereo not given) | 4 | 9
Cc1oc(-c2ccc(C(F)(F)F)cc2)nc1CN1CCC[C@H]1C(N)=O | 6 | 7
Cc1ccc(Cc2nsc(N3CCN(c4cccc(Cl)c4)CC3)n2)cc1 | 2 | 12
O=C1CCC(C(=O)N2CCC(Cc3n[nH]c(=O)n3-c3ccccc3)CC2)N1 (stereo not given) | 0 | 2
O=C(C[C@@H]1C[C@@H]2C=C[C@H]1C2)N1C[C@H]2C[C@H](O)[C@H](O)C[C@H]2C1 | -2 | -3
CN(C(=O)CN1CCC(c2cc3ccccc3[nH]2)CC1)C1CC1 | -1 | -2
Cc1cccc(C)c1NC(=O)CNC(=O)c1ccc(F)cc1F | 7 | 4
COc1ccc(C2NCCc3c2[nH]c2ccccc32)cc1CN1CCN(c2ccc([N+](=O)[O-])cc2)CC1 (stereo not given) | 9 | 6
Cc1cc(=O)c(OCc2ccccc2)cn1CC(=O)N1CCOCC1 | 0 | -1
Cc1cccc(NC(=O)N2CCc3ccccc3C2c2ccc(Cl)cc2)c1 (stereo not given) | 20 | 10
CC(C)COc1nc(-c2cccs2)n(-c2ccc(NC(=O)c3ccc(C(F)(F)F)cc3)cc2)n1 | 4 | 4
O=C(c1ccc(C(F)(F)F)o1)N1CCC(O)(c2ccc(Br)cc2)CC1 | 9 | 11
CCOC1CCCN(C(=O)Nc2ccccc2OC(F)F)C1 (stereo not given) | 0 | -2
Cc1ccc(C(C)C)c(OCC(=O)NNC(=O)CN2C(=O)c3ccccc3C2=O)c1 | -2 | -10
CCc1ccc(C2CC(=O)Nc3n[nH]c(-c4cccs4)c32)o1 (stereo not given) | 2 | 4
O=C(c1ccoc1)N1CCc2onc(C(c3ccccc3)c3ccccc3)c2C1 | 11 | 11
COc1ccc(CN(CCc2c[nH]c3ccccc23)C(=O)CN(C(=O)c2cccc(F)c2)C2CC2)cc1 | 19 | 26
COc1ccc(C(=O)CSc2nnc(C)n2-c2cccc(C)c2)cc1 | 25 | 33
CC1Cc2cc(S(N)(=O)=O)ccc2N1CCCc1ccccc1 (stereo not given) | 10 | 7
CN1CCN(c2nc(CSc3ncccn3)cc(=O)[nH]2)CC1 | 1 | 1
CCC(NC(=O)Cc1nc2nc(C)cc(C)n2n1)c1ccccc1OC (stereo not given) | -3 | -3
CCCCOc1ccc(C2=N/C(=C\c3ccc(OCC)cc3)C(=O)O2)cc1 | -4 | -9
COC(=O)c1ccc(C(=O)N(C)C2CS(=O)(=O)c3ccc(Cl)cc32)nc1 (stereo not given) | 4 | 3
O=C(Nc1ccc(Cl)cc1)C1CC=CCC1C(=O)N1CCN(c2ccccn2)CC1 (stereo not given) | -1 | -4
CCc1nc2ccc(C(=O)Nc3cccc(OC)c3)cn2c1N(CC)CCOC | -8 | -11
Cc1nn(-c2ccccc2)c(N2CCN(C)CC2)c1CN(CCC(C)C)C(=O)C1CC1 | 0 | 3
CCOc1cc(C)c(S(=O)(=O)N2CCC(C(N)=O)CC2)cc1C(C)C | -1 | -2
Cc1cnc(NC2CCN(CC3CCCO3)CC2)nc1N(C)C (stereo not given) | -4 | -8

# Four of these compounds in another layout:
> CCn1c(C)c(C(=O)CN(Cc2ccco2)S(=O)(=O)c2cccc3cccnc23)c(C)c1C(=O)OC
  NPYLR7 ag: 24
  NPYLR7 ag max-min: 30

> CC(C)CN(CC(C)C)C(=O)CSc1nn2c(=O)c(C(C)(C)C)nnc2s1
  NPYLR7 ag: -4
  NPYLR7 ag max-min: -4

> COCCNC(=O)[C@@]1(OCc2cccc(C(F)(F)F)c2)CC(OCc2ccc(C#N)cc2)[C@H](O)[C@H](O)C1 (stereo not given in full)
  NPYLR7 ag: 5
  NPYLR7 ag max-min: 12

> CCN1C(=O)N(CC)C(O)C1O (stereo not given)
  NPYLR7 ag: 0
  NPYLR7 ag max-min: 2

# (further entries)
Compound | NPYLR7 ag | NPYLR7 ag max-min
CCOc1ccc2c(c1)[n+](=O)c(C(C)=O)c(C)n2[O-] | 9 | 0
Cc1cc(C)c(C)c(OCCCNC(=O)N2CCN(S(=O)(=O)c3ccc([N+](=O)[O-])cc3)CC2)c1 | 14 | 12
Cc1ccc(F)c(C(=O)NCC(C)(C)CN(C)C(=O)c2cc(C)ccc2F)c1 | 37 | 36
COc1ccc(NC(=O)Nc2ccc(Nc3ccc(-n4nc(C)c(C)c4C)nn3)cc2)cc1 | -4 | -11
COc1ccc(-c2ccccc2NC(=O)C2CCCN(Cc3cnc(C)s3)C2)cc1 (stereo not given) | 1 | -3
CO[C@H]1[C@H](NC(=O)c2ccco2)c2ccccc2C12CCN(Cc1[nH]c3c(C)cccc3c1C)CC2 | 24 | 15
Cc1ncc(CNCC(C)N(C)C2CC2)n1-c1ccccc1 (stereo not given) | 5 | 3
COc1ccc2nc(SCC(=O)NCCc3ccc4c(c3)OCCO4)[nH]c2c1 | 8 | 5
COc1ccc(-c2csc(-n3[nH]c(C)c(N=Nc4ccccc4)c3=O)n2)cc1 | -3 | -6
COCCC1(C(=O)O)CCCN(c2ccc(-c3ccccc3)nn2)C1 (stereo not given) | 4 | 2
CC(=O)NC(c1ccccc1)c1nc(/C=C/c2ccccc2)cs1 (stereo not given) | 8 | 4
CC1NCCN(c2ccc(-c3ccccc3)cc2)C1=O (stereo not given) | 2 | 5
CC(=O)Nc1c2ccccc2n2c(C)nc3c4ccccc4[nH]c3c12 | -2 | -4
COc1ccccc1-c1cc(C(=O)Nc2ccc(F)cc2)nc2cc(C(C)(C)C)nn12 | -6&18 | -3&19
CC(C)Oc1ccc(NS(=O)(=O)CC(=O)N(C)C2CCCC2)cc1 | 8 | 6
Cc1cc(C)c(S(=O)(=O)N(CC(=O)N(Cc2ccc(F)cc2)Cc2cccs2)C2CCCCC2)c(C)c1 | 2 | 12
O=c1[nH]c2ccc(S(=O)(=O)N3CCC4(CCCO4)CC3)cc2o1 | 6 | 4
Cc1cc(NC(=O)CSc2nc3[nH]ncc3c(=O)[nH]2)no1 | 10 | 10
Cc1nc(SCc2ccc(C(=O)O)cc2)nc(N(C)Cc2ccccc2)c1C | 10 | 18
CCOC(=O)c1c(NC(=O)C23CC4CC(CC(C4)C2)C3)sc(C(=O)Nc2ccccc2C)c1C | 2 | 0
COc1cc(/C=C2/C(=O)N(c3ccc(Cl)c(Cl)c3)N=C2C)ccc1OCC#N | 5 | 13
O/N=C1/CSCc2ccccc21 | -11 | -11
CC1(C)C2CCC1(C)C(NC1=NCCC1)C2 (stereo not given) | 3 | 11
COc1ccccc1-n1ncc2c(C)nnc(SCC(=O)Nc3ccc(Cl)cc3)c21 | -5 | -11
COc1cn(CC(=O)Nc2cc(C)ccc2C)c(CN2CCCCC2)cc1=O | -3 | -4
COc1ccc(NC(=O)CCN2CCC(c3noc(C)n3)CC2)cc1 | 10 | 6
CC(c1cccc(-c2nccn2CCc2cn[nH]c2)c1)N(C)C (stereo not given) | -1 | -2
N#CC=C(Sc1nc2ccccc2o1)c1ccccc1 | 2 | 1
O=C1NC(C(=O)N2CCCC2c2ccccc2)CSC1Cc1ccc(F)cc1 (stereo not given) | 1 | 0
CC(C(=O)N(C)C1CCCCC1)N1CCN(S(=O)(=O)c2ccc(Br)cc2)CC1 (stereo not given) | 11 | 13

# Single records (already shown). Values in the order: NPYLR7 ag | NPYLR7 ag max-min
# Profile of COc1ccc(NC(=O)CCN2CCC(c3noc(C)n3)CC2)cc1 → 10 | 6
# Profile of COc1ccccc1-n1ncc2c(C)nnc(SCC(=O)Nc3ccc(Cl)cc3)c21 → -5 | -11
# Profile of O/N=C1/CSCc2ccccc21 → -11 | -11

# The list goes on.
Compound | NPYLR7 ag | NPYLR7 ag max-min
Cc1occc1C(=O)N(C)C(Cc1ccccc1)C1CCN(C(=O)c2cnn(-c3ccccc3)c2)CC1 (stereo not given) | 0 | 3
CCc1ccccc1N1C(=O)CSC1c1cccc(NC(=O)c2ccccc2Cl)c1 (stereo not given) | -5 | -1
COc1ccc(NC(=O)CSc2nc3c(c(=O)n2-c2cc(C)cc(C)c2)SCC3)cc1OC | -2 | -6
CC1CCCCN1CC(=O)N1N=C(c2ccccc2)CC1c1ccccc1 (stereo not given) | 10 | 16
CCOC(=O)CNC(=O)Cn1cc(OC)c(=O)cc1CN1CCCCCC1 | 2 | 1
O=C(NC(C(=O)N1CCOCC1)C1CCN(C(=O)c2ccccc2F)CC1)c1cccs1 (stereo not given) | -4 | 6
CCCC(CCC)C(=O)Nc1noc2ncccc12 | 4 | 3
CCc1nc2ccc(C(=O)NCCN(C)C)cn2c1N(C)CCCc1ccccc1 | 17 | 11
NC(=O)C(Oc1ccccc1Cl)c1ccccc1 (stereo not given) | 13 | 9
N#Cc1ccc(N=Nc2c(-c3ccccc3)[nH]n(-c3ccccc3)c2=O)cc1 | 0 | -7
CCOc1c(Br)cc(F)cc1NCC(=O)NC(=O)NC | 5 | 2
COCCn1c(C)cn2c3c(=O)n(CCCO)c(=O)n(C)c3nc12 | 1 | 2

# Source: PubChem

# Only part of the results is shown; count on the stated rates, not on these rows.
